# Screens from PubChem BioAssay.
# BJeLR lethal – BJeLR cell viability loss; BJeLR (HRASV12) viability, CellTiter-Glo ATP luminescence, 48 h; reference of the scale not given here; inhibition, % (test concentration not listed); actives 0.17% (n = 300,000); AID 1554;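 active = replicate mean above 50%; inconclusive = above 50% but judged a plate artefact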;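 note: 50 nL library stock added to about 25 µL; numbers are from one replicate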
# Sa ugtP lethal – compounds lethal to S. aureus RN4220 ugtP deletion mutant | OD600 growth, 16 h; some inactives read as strong as hits | growth inhibition, % (test concentration not listed) | actives 0.54% (n = 330,000) | AID 1259309;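 active = z-score under -3 and OD600 up to 0.15 on both plates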;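 note: plate controls were untreated wells for no effect and antibiotic for full effect; wells of about 80 µL received 100 nL stock; the first replicate is given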
# Mtb hypoxia rep – inhibitors of hypoxia-regulated fluorescent reporter in Mycobacterium tuberculosis; actives 0.1% (n = 300,000); M. tuberculosis hypoxia-regulated fluorescent reporter, fluorescence; AID 1159583; fluorescence inhibition, % (no concentration beside the values);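 active = 35 to 45% if threefold the growth effect, above 45% if 1.5-fold the growth effect; inactive = the rest, general growth blockers included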;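 note: wells of about 50 µL received 100 nL stock; 0% = vehicle wells and 100% = reference inhibitor wells; whole bacteria with a GFP reporter of the hypoxia response; strong numbers were not always called active; many hits fall short of the cut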
# RN4220 kill – S. aureus RN4220 growth inhibition | OD600, 16 h | inhibition, % (no concentration beside the values) | actives 0.33% (n = 330,000) | AID 1259311;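 active = z-score of -3 or lower and OD600 up to 0.18 on both plates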;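 note: plate controls were untreated cells for no effect and reference antibiotic for full effect; stock transfer was 100 nL into about 80 µL; one replicate is shown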
# PrP 5UTR inh – suppresses PrP 5' UTR mRNA reporter expression; cell-based PrP 5' UTR mRNA reporter, plate reader; inhibition, % (test concentration not listed); actives 0.35% (n = 340,000);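 active = every replicate at 50% or more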;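 note: 0 = median of the neutral control wells; tested in H4 reporter cells; numbers are from one replicate; inactives centre near -14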
# Bead autofluor – compound fluorescence in toxin protease inhibitor counterscreen | compound autofluorescence counterscreen, microsphere flow cytometry; stronger effect = higher value | fluorescence intensity (test concentration not listed) | actives 3.1% (n = 360,000) | AID 624483;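 active = at least 3 SD above the mean of all compounds, about 16000 in these data; inconclusive = too few beads counted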;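 note: 100 nL of 1 mM stock went into each well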
# Mtb hypoxia rep growth – recorded beside Mtb hypoxia rep, whose call it bears; growth inhibition, %; measured here: M. tuberculosis growth (absorbance);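 0% = vehicle and 100% = reference antibiotic; read after six days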
# * hit, by the source's call; ? = inconclusive; / = no result given.
canonical_smiles,BJeLR lethal,Sa ugtP lethal,Mtb hypoxia rep,Mtb hypoxia rep growth,RN4220 kill,PrP 5UTR inh,Bead autofluor
C=CCN(CC=C)C(=O)Nc1ccc2nc(C)sc2c1,-5.2,11.1,14.6,3.9,4.3,-10.9,2041
CCOP(=O)(OCC)C(O)c1cc(OC)c(OC)c(OC)c1 (stereo not drawn),-3.7,6.8,2.3,4.5,5.0,-20.3,2116
CN(C(=O)CCN1C(=O)c2ccccc2C1=O)c1ccccc1,27.5,6.5,6.3,8.5,6.1,-17.2,3709
Cc1ccc(-n2ncc3c(=O)n(CC(=O)N(C)C)cnc32)cc1C,-1.1,4.0,-2.1,3.5,1.9,-8.2,3885
O=C1CCCc2c1nc(-c1ccccc1)n2O,4.2,4.7,8.3,7.3,2.0,-5.9,9807
O=c1[nH]nc(N/N=C/c2ccccc2OC(F)F)c(=O)[nH]1,11.3,/,/,/,/,-16.9,4397
CCOC(=O)c1cc(C#N)c(SCC(=O)O)[nH]c1=O,-1.1,4.9,5.9,4.3,7.5,3.2,3252
COc1ccc(-c2nnc3ccc(SCC(N)=O)nn23)cc1OC,2.2,12.2,8.7,7.3,4.2,-86.3,7471
CC(C)CCNC(=O)NC(=O)CSc1nnc(-c2ccccc2Br)o1,-0.4,-24.7,9.0,21.6,7.0,-32.9,5168
O=C(Nc1ccc(Nc2ccccc2)cc1)c1ccco1,0.2,10.1,/,/,-0.1,-82.9,1706
COc1ccc(-c2noc(=O)n2Cc2ccccc2Cl)cc1,-6.6,1.3,15.3,6.1,6.6,-12.5,3804
O=C(CC1N=C2c3ccccc3N=C(SCc3ccc(F)cc3)N2C1=O)NCc1ccco1 (stereo not drawn),2.7,22.3,0.1,5.3,-1.7,-3.5,10047
CCCCCCCNC(=O)C1(CC2CC(c3ccc(Cl)cc3)=NO2)CCN(C(=O)C2CCCC2)CC1 (stereo not drawn),4.9,-16.3,-7.1,-6.8,-6.2,-10.0,2992
CC(=O)Nc1ccc(S(=O)(=O)N2CCN(Cc3csc(C)n3)CC2)cc1,-2.7,6.1,12.1,9.3,3.2,-6.2,5710
Cc1cc(C)cc(N(C(=O)c2csnn2)C(C(=O)NC(C)(C)C)c2cccnc2)c1 (stereo not drawn),7.0,-3.8,6.0,4.6,7.8,-12.1,4848
Cc1ccccc1C1NC(c2ccccc2C)C(C)C(=O)C1C (stereo not drawn),-8.8,11.4,21.8,2.1,3.2,-7.7,3119
Cn1c(=O)c(=O)n(C)c2cc(S(=O)(=O)N3CCCC3C(=O)NCc3cccs3)ccc21 (stereo not drawn),7.9,13.7,12.1,12.1,4.8,-7.2,4773
CCOC(=O)C(c1ccccc1)C(Nc1cc(C(F)(F)F)cc(C(F)(F)F)c1)c1ccccn1 (stereo not drawn),-9.0,3.1,10.2,3.5,3.3,-11.7,5258
O=C(NCCOc1ccc(Cl)cc1)C1CC(=O)N(c2ccc3c(c2)OCCO3)C1 (stereo not drawn),/,-9.4,-5.4,-4.0,-4.6,-25.9,3252
O=C(NN1C(=O)c2ccccc2NC1c1cccnc1)c1ccc([N+](=O)[O-])cc1 (stereo not drawn),5.5,-7.3,-5.3,9.4,26.0,-14.0,3217
Cc1ccc(C2Nc3ccccc3C(=O)N2CCCN2CCOCC2)cc1 (stereo not drawn),-0.3,1.2,3.3,0.7,1.1,-4.4,/
CN(Cc1nc(-c2cnccn2)no1)CC(O)c1ccccc1 (stereo not drawn),-8.1,5.7,-10.4,0.6,9.5,-12.4,3851
Cc1cc(NS(=O)(=O)c2ccc(NC(=O)/C=C/c3ccccc3)cc2)nc(C)n1,/,3.4,23.1,17.2,2.7,-20.4,3550
COc1c(Cl)cc(Cl)cc1C=Nn1cnnc1,/,5.9,15.0,-5.2,3.0,/,/
Cn1c(SCC(=O)NN=C/C=C/c2ccco2)nc2ccccc21,/,-1.7,7.0,6.6,5.6,/,/
Cc1cc(NC(=O)COC(=O)Cn2c(C)csc2=O)ccc1Br,-8.7,0.1,3.1,8.3,-0.9,-3.5,5249
O=C(Cn1cc(C(F)(F)F)ccc1=O)NN=Cc1ccccc1,/,8.2,11.2,2.0,1.4,/,/
O=C(c1c(F)cccc1F)N(Cc1cccs1)C1CCCC1,4.7,2.1,20.1,5.4,9.3,44.8,3626
CCOc1ccc(C(=O)Nc2ccc(N3CCCC3)cc2)cc1,0.5,-1.2,6.2,13.8,2.7,-14.2,1958
C1CN=C(NC23CC4CC(CC(C4)C2)C3)C1,3.5,3.3,4.5,8.7,3.6,10.4,2777

# 6 compounds drawn at random from those above:
canonical_smiles,BJeLR lethal,Sa ugtP lethal,Mtb hypoxia rep,Mtb hypoxia rep growth,RN4220 kill,PrP 5UTR inh,Bead autofluor
CC(C)CCNC(=O)NC(=O)CSc1nnc(-c2ccccc2Br)o1,-0.4,-24.7,9.0,21.6,7.0,-32.9,5168
Cc1ccccc1C1NC(c2ccccc2C)C(C)C(=O)C1C (stereo not drawn),-8.8,11.4,21.8,2.1,3.2,-7.7,3119
CCCCCCCNC(=O)C1(CC2CC(c3ccc(Cl)cc3)=NO2)CCN(C(=O)C2CCCC2)CC1 (stereo not drawn),4.9,-16.3,-7.1,-6.8,-6.2,-10.0,2992
COc1ccc(-c2noc(=O)n2Cc2ccccc2Cl)cc1,-6.6,1.3,15.3,6.1,6.6,-12.5,3804
Cc1ccc(-n2ncc3c(=O)n(CC(=O)N(C)C)cnc32)cc1C,-1.1,4.0,-2.1,3.5,1.9,-8.2,3885
CN(C(=O)CCN1C(=O)c2ccccc2C1=O)c1ccccc1,27.5,6.5,6.3,8.5,6.1,-17.2,3709

# Following part:
canonical_smiles,BJeLR lethal,Sa ugtP lethal,Mtb hypoxia rep,Mtb hypoxia rep growth,RN4220 kill,PrP 5UTR inh,Bead autofluor
Cc1cccc(C)c1OCc1cc(C(=O)N2CCCCCCC2)no1,-3.0,/,/,/,/,-13.5,4186
C[n+]1cccc(C(=O)[O-])c1,/,3.8,1.5,0.8,3.2,-3.0,4197
O=C(COC(=O)c1ccc(O)cc1O)NC(=O)Cc1ccccc1,/,9.9,-1.8,3.4,2.5,-18.6,?
COc1ccc(CCNC(=O)c2cccc(NS(=O)(=O)c3ccccc3F)c2)cc1OC,6.7,-4.8,-9.1,1.9,-0.6,-0.6,5559
COc1cc(/C=C2/C(=O)ON=C2c2ccccc2)ccc1O,6.5,/,/,/,/,-12.5,9231
O=C(Nc1nnc(C2CC2)s1)C1=NN(C2CCS(=O)(=O)C2)C(=O)CC1 (stereo not drawn),-9.9,7.4,5.3,-3.0,4.8,-13.4,4244
Cc1c(C(=O)Nc2ccccc2F)sc2ncn(CC(=O)N3CCOCC3)c(=O)c12,-9.8,3.1,6.5,5.7,1.5,-6.2,5794
CCCCn1nc(CC(=O)NCCN(CC)CC)c2ccccc2c1=O,-9.9,4.0,17.0,5.4,0.6,-1.9,6215
O=C(c1cc(-c2ccncc2)nc2c(Cl)cccc12)N1CCN(c2ccccc2F)CC1,45.1,/,/,/,/,-41.5,6327
COC(=O)CCNC(=O)Cn1cnc2sc3c(c2c1=O)CCCC3,-3.7,7.0,2.2,11.3,4.9,-8.2,4330
CCC(=O)Nc1cccc(C2=NOC3(C2)CC(C(N)=O)N(C(=O)c2ccccc2C(=O)c2ccccc2)C3)c1 (stereo not drawn),/,-0.1,-5.8,0.4,4.6,/,/
COc1ccc(NC(=O)C2CCN(S(=O)(=O)c3ccc4c(c3)NC(=O)CO4)CC2)cc1,10.0,4.4,2.7,-4.1,1.8,-18.1,5616
Cc1cc(C)c(CN2CCN(C(=O)Cn3ccc(NC(=O)OCc4ccccc4)nc3=O)CC2)c(C)c1,/,-16.0,-7.7,2.7,-6.2,-1.1,3770
COC(=O)C1=C(c2cccc(OCc3ccccc3)c2)CC2CCC1N2C(=O)NCc1ccc(C(C)(C)C)cc1 (stereo not drawn),/,25.0,9.5,13.0,-10.8,/,/
Cc1cc(Cl)c2oc(C(=O)NCCN3CCCCC3CO)c(C)c2c1 (stereo not drawn),1.3,7.9,-0.1,-6.3,3.1,-6.1,6289
CCCC(=O)Nc1ccc2c(c1)Cc1ccccc1-2,-10.2,2.9,-3.0,-4.0,-1.5,-52.7,3618
O=C(Nc1ccccc1Cl)/C(Cl)=C(\Cl)S(=O)c1ccccc1 (stereo not drawn),-18.8,/,/,/,/,-11.5,2373
CCOC(=O)C1=C(C)N(C[C@@H]2CC[C@@H](Cc3ccc4cc(OC)ccc4c3)O2)C(=O)NC1c1ccccc1 (stereo partly drawn),/,-3.0,3.0,3.8,-5.9,-23.2,3696
CCCCn1c(N)c(N(CC(C)C)C(=O)CCCSc2nncs2)c(=O)[nH]c1=O,6.9,6.8,7.7,-0.2,-0.8,-13.3,4333
CCn1c(/C=C2\C(=O)Nc3ccccc32)nc2ccccc2c1=O,5.1,-5.1,3.1,-2.1,1.2,-12.9,2153
O=C(NCCc1ccccc1)C1CCN(C2CCN(Cc3ccco3)CC2)CC1,11.2,2.6,16.0,6.6,5.5,-5.6,5199
C=C(C)COc1ccc(-c2ncnc(C(F)(F)F)c2-c2ccc(OC)cc2)c(O)c1,0.2,54.3,11.5,6.6,-7.4,-10.6,3648
Cc1cc(C)c2c(CN3CC(C)OC(C)C3)cc(=O)oc2c1C (stereo not drawn),6.6,0.0,2.4,-2.0,4.1,-14.7,4103
COc1ccc(C(=O)NC23CC4CC(CC(C4)C2)C3)cc1,3.7,4.7,15.4,9.1,5.2,-27.4,3662
CN1C(CC(=O)Nc2ccc(Cl)cc2Cl)c2ccccc2CC1(C)C (stereo not drawn),-9.1,12.7,8.8,1.0,5.4,/,5920
O=C(CCc1ccccn1)N1CCCC(N2CCN(c3ccc(F)cc3)CC2)C1 (stereo not drawn),4.1,6.5,9.8,0.0,0.6,-17.4,5734
CC(=O)NC1=NN(C(C)=O)C(c2ccc(C(C)C)cc2)S1 (stereo not drawn),3.6,8.9,1.5,4.2,19.1,-29.5,10439
CCOP(=O)(OCC)C(NC(=O)Nc1ccc(Cl)c(Cl)c1)C(N)=O (stereo not drawn),8.7,-1.9,-5.2,7.8,3.8,-46.0,2425
C[C@H]1CN([C@@H](C)CO)C(=O)Cc2cc(NS(=O)(=O)c3ccc(Cl)cc3)ccc2O[C@@H]1CN(C)C(=O)Nc1cccc2ccccc12,/,2.5,6.0,17.2,-1.7,-0.1,3825
COc1cc(NC(=O)c2cc([N+](=O)[O-])ccc2NC(=O)CNC2CCCCC2)cc(OC)c1,4.2,-14.0,-6.1,-5.3,-0.7,10.3,5546
CCOc1ccc(NC(=O)c2cc(F)c(F)cc2Cl)cc1OCC,0.0,9.3,6.0,1.5,9.2,-18.6,6015
COc1ccc(N2CCN(C(c3cccc(OC)c3OC)c3nnnn3C3CCCC3)CC2)cc1 (stereo not drawn),3.3,0.3,/,/,-1.7,-4.4,4874
COc1cccc(NC(=O)C2CCN(S(=O)(=O)c3ccc4c(c3)N(C(C)=O)CCO4)CC2)c1,0.5,6.1,2.1,3.8,2.8,-16.3,4649
Cc1nn(Cc2ccc(Cl)cc2Cl)c(C)c1NC(=O)c1nn(C)cc1Cl,2.3,-7.4,0.1,3.7,1.1,/,10190
O=S(=O)(Nc1nc2ccccc2nc1Nc1ccc2c(c1)OCCO2)c1cccs1,0.4,-9.7,0.2,2.7,18.5,-40.8,7797
Cc1ccc(C2(c3ccccc3)NC(=O)N(CC(=O)N3CC(=O)Nc4ccccc43)C2=O)cc1C (stereo not drawn),/,-0.2,7.0,2.0,0.3,-23.8,8232
O=C(O)c1cccc(N2C(=O)CSC2c2ccccc2)c1 (stereo not drawn),1.2,18.5,3.8,6.1,1.2,-16.6,3811
O=S(=O)(c1ccccc1)N1CCNCC1,0.6,2.8,7.5,10.0,1.8,-13.0,4389

# No enrichment for hits, and some 4% of all compounds hit somewhere here.
